EPAC2 ant val – Validation qHTS for antagonist of cAMP-regulated guanine nucleotide exchange factor 4 (EPAC2) | EPAC2 Rap1B BODIPY-GDP exchange, fluorescence | Potency, µM (highest dose often 112 µM), inactives show top-dose activity, negative = inhibition, hits mostly inhibitors | 1.7% of 16,000 active | AID 1645886, 2021; active = well fitted inhibition curve with a large enough effect; inconclusive = small, poorly fitted or top-dose-only effect; inactive = no such curve, though single readings can be large or run the other way;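 note: 100% = activation by cAMP agonist control; nearly all actives have a fitted effect of over 40% in size; the record reuses the description of the EPAC1 agonist screen; inactives centre near -10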
Target sequence (Q8WZA2 whole entry, looked up): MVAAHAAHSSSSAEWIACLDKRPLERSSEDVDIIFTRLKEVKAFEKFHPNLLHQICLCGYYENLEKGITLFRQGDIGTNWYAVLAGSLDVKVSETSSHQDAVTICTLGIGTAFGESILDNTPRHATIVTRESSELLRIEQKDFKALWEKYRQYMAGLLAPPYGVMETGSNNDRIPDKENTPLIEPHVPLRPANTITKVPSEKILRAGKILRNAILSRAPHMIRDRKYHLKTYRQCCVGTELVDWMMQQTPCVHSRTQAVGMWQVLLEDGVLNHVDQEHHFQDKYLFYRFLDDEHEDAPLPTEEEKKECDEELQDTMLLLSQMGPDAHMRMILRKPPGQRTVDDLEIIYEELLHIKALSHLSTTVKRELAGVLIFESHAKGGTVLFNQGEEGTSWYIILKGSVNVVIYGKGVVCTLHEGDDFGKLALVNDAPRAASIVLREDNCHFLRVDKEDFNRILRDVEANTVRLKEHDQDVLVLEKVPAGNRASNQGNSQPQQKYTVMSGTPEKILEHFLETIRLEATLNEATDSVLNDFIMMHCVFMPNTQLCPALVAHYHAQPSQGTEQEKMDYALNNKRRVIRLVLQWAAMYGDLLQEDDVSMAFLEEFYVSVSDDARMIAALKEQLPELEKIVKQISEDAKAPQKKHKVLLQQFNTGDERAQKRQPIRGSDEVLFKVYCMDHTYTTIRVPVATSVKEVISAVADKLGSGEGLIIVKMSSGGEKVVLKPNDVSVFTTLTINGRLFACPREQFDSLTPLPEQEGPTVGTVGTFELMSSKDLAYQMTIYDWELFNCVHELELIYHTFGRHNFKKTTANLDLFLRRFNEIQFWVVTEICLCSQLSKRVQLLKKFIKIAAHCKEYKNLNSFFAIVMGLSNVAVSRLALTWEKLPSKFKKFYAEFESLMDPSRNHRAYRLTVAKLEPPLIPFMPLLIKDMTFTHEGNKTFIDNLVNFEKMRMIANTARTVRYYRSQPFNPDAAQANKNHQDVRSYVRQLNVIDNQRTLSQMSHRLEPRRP
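Fluorescent exchange read-out: 100 nM EPAC2 with 250 nM RAP1B–BODIPY-GDP and 50 uM GDP; BODIPY-GDP release lowers fluorescence. Read at 480/540 nm every 5 min for 30 min at room temperature; normalized to 6.5 mM cAMP.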
Starred values were filed as active, the others as inactive; & = joins results of further samples; [ ] = dose if it differs, or a comment. Potency is the fitted concentration of half-maximal effect.

How did Cc1cnc(SCc2ccccn2)nc1C1CCCN(C(=O)c2coc3c2C(=O)CCC3)C1 (stereo unspecified) do in these assays?
EPAC2 ant val: 9%

What do the screens show for `CSc1nnc(CCNC(=O)c2ccccc2C(F)(F)F)n1-c1ccc(F)cc1`?
EPAC2 ant val: 1%

What do the screens show for `OC1(c2cccnc2)CCN(Cc2ccc3c(c2)CN(Cc2cccc(F)c2F)CCO3)CC1`?
EPAC2 ant val: 0%

How did COC(=O)CC(NC1CCN(c2nc(C)c3cc4c(cc3n2)CCC4)CC1)C(=O)OC (stereo unspecified) do in these assays?
EPAC2 ant val: -1%

Results for CN(CC1(C)CCCO1)S(=O)(=O)c1ccc(Cl)c(S(N)(=O)=O)c1 (stereo unspecified) ?
EPAC2 ant val: 1%

Results for CN1C[C@H](C(=O)N[C@]2(C)O[C@@]3(O)C4CCCN4C(=O)[C@H](Cc4ccccc4)N3C2=O)C[C@@H]2c3cccc4[nH]cc(c34)C[C@H]21 (stereo partly specified) ?
EPAC2 ant val: -10%

What do the screens show for `Cc1nc2cnc(N3CCOCC3)nc2n(C2CC2)c1=O`?
EPAC2 ant val: -10%

Results for COc1ccc(C(=O)NCCc2nnc3n2CCN(CC2CC=CCC2)CC3)cc1 (stereo unspecified) ?
EPAC2 ant val: -10%

What do the screens show for `C[C@]12C=CC(=O)C=C1[C@@H](F)C[C@@H]1[C@@H]2[C@@H](O)C[C@@]2(C)[C@H]1CC[C@]2(O)C(=O)CO`?
EPAC2 ant val: 10%&-10%

How did CCOc1ccc(NC(=O)CC(C)O)cc1 (stereo unspecified) do in these assays?
EPAC2 ant val: -10%

How did OCCN1CCN(Cc2ccc3c(c2)CN(Cc2cccc4ncccc24)CCO3)CC1 do in these assays?
EPAC2 ant val: -13%

Results for COc1cc(CN2CCOc3ccc(CN4CCC(O)(c5cccnc5)CC4)cc3C2)ccc1F ?
EPAC2 ant val: -1%

Results for CN1CCN(c2ncnc3ccc(-c4cccc(C#N)c4)cc23)CC1 ?
EPAC2 ant val: -13%

How did CC1Cc2ccccc2C[N+]1(C)CC(=O)c1cccc([N+](=O)[O-])c1 (stereo unspecified) do in these assays?
EPAC2 ant val: -36%

Results for Cc1cnc(-n2ncc(C(=O)NCCc3cccnc3)c2C)nc1-c1ccc(F)cc1 ?
EPAC2 ant val: -1%

What do the screens show for `CC(C)C(NS(C)(=O)=O)c1nnc2n1CCN(Cc1cccc3ncccc13)CC2` (stereo unspecified)?
EPAC2 ant val: -13%

What do the screens show for `CNCCCCCCCCSc1nc(C(C)C)ccc1C(=O)c1cccs1`?
EPAC2 ant val: inconclusive

Results for COCc1ccc(CN2CCOc3ccc(C4=Cc5ccccc5C4)cc3C2)o1 ?
EPAC2 ant val: -31%

What do the screens show for `COc1ccc(CNc2cc(-c3ccccc3CN(C)C)ncn2)c(OC)c1`?
EPAC2 ant val: -18%

What do the screens show for `Cc1cc(C(=O)NCc2nnc3n2CCN(Cc2ccc4c(c2)Cc2ccccc2-4)CC3)c(C)o1`?
EPAC2 ant val: inconclusive

What do the screens show for `CCn1c(-c2ccccc2F)nc2cc(C(=O)NCc3ccc(C)o3)cc(NC(C)=O)c21`?
EPAC2 ant val: -10%

How did COC(=O)N1CCC[C@@]2(CCN(C(=O)Nc3cccc(F)c3)C2)C1 do in these assays?
EPAC2 ant val: -1%

What do the screens show for `COc1ccc(NC(=O)N2CCCC3(CCN(C(C)=O)CC3)C2)cc1`?
EPAC2 ant val: -25%

What do the screens show for `CNc1ccnc(-c2c(C)noc2C)n1`?
EPAC2 ant val: 6%

Results for COc1ccccc1CN1CCCC2(CCN(C(=O)c3c(C)noc3C)CC2)C1 ?
EPAC2 ant val: -13%

What do the screens show for `COCC(=O)N1CCC2(CC1)CN(C(c1ccccc1)c1ccccc1)C2`?
EPAC2 ant val: -30%

What do the screens show for `CC(=O)NC(CC(=O)O)C(=O)O` (stereo unspecified)?
EPAC2 ant val: -1%

What do the screens show for `Cc1noc(NS(=O)(=O)c2cccc3c(N(C)C)cccc23)c1C`?
EPAC2 ant val: -8%

Results for COc1ccc(-c2c(-c3ccc4c(c3)OCO4)noc2-c2ccsc2)cn1 ?
EPAC2 ant val: inconclusive

Results for Oc1c(Cl)cc(Cl)c2cccnc12 ?
EPAC2 ant val: -29%

How did C=CCNC(N)=S do in these assays?
EPAC2 ant val: inconclusive

How did CCNC(=O)[C@H]1O[C@@H](n2cnc3c(N)nc(NCCc4ccc(CCC(=O)O)cc4)nc32)[C@H](O)[C@@H]1O do in these assays?
EPAC2 ant val: -8%

How did CCCCCCCCCCCCCCCCCCN(CCCCCCCCCCCCCCCCCC)c1ccccc1 do in these assays?
EPAC2 ant val: 10%

What do the screens show for `COCCn1c(=O)c(-c2cccs2)nc2cnc(Oc3ccccc3)nc21`?
EPAC2 ant val: -14%

What do the screens show for `COc1cc(=O)n2c(c1C(=O)N(C)Cc1nonc1C)CCN(C(=O)c1ccc(C)cc1C)CC2`?
EPAC2 ant val: -3%

How did Nc1[nH]c(=S)[nH]c(=O)c1N do in these assays?
EPAC2 ant val: 2%

11 consecutive records out of the list so far:
What do the screens show for `OC1(c2cccnc2)CCN(Cc2ccc3c(c2)CN(Cc2cccc(F)c2F)CCO3)CC1`?
EPAC2 ant val: 0%

How did COC(=O)CC(NC1CCN(c2nc(C)c3cc4c(cc3n2)CCC4)CC1)C(=O)OC (stereo unspecified) do in these assays?
EPAC2 ant val: -1%

Results for CN(CC1(C)CCCO1)S(=O)(=O)c1ccc(Cl)c(S(N)(=O)=O)c1 (stereo unspecified) ?
EPAC2 ant val: 1%

Results for CN1C[C@H](C(=O)N[C@]2(C)O[C@@]3(O)C4CCCN4C(=O)[C@H](Cc4ccccc4)N3C2=O)C[C@@H]2c3cccc4[nH]cc(c34)C[C@H]21 (stereo partly specified) ?
EPAC2 ant val: -10%

What do the screens show for `Cc1nc2cnc(N3CCOCC3)nc2n(C2CC2)c1=O`?
EPAC2 ant val: -10%

Results for COc1ccc(C(=O)NCCc2nnc3n2CCN(CC2CC=CCC2)CC3)cc1 (stereo unspecified) ?
EPAC2 ant val: -10%

What do the screens show for `C[C@]12C=CC(=O)C=C1[C@@H](F)C[C@@H]1[C@@H]2[C@@H](O)C[C@@]2(C)[C@H]1CC[C@]2(O)C(=O)CO`?
EPAC2 ant val: 10%&-10%

How did CCOc1ccc(NC(=O)CC(C)O)cc1 (stereo unspecified) do in these assays?
EPAC2 ant val: -10%

How did OCCN1CCN(Cc2ccc3c(c2)CN(Cc2cccc4ncccc24)CCO3)CC1 do in these assays?
EPAC2 ant val: -13%

Results for COc1cc(CN2CCOc3ccc(CN4CCC(O)(c5cccnc5)CC4)cc3C2)ccc1F ?
EPAC2 ant val: -1%

Results for CN1CCN(c2ncnc3ccc(-c4cccc(C#N)c4)cc23)CC1 ?
EPAC2 ant val: -13%

(continued)
What do the screens show for `CC(=O)OC1CC2C(C)(C)C=CC(=O)[C@@]2(C)C2CC[C@@]3(C)C(c4ccoc4)OC(=O)C4OC43[C@]12C` (stereo partly specified)?
EPAC2 ant val: -20%

What do the screens show for `O[C@@H](c1cc(C(F)(F)F)nc2c(C(F)(F)F)cccc12)[C@H]1CCCCN1`?
EPAC2 ant val: 0%

Results for N[C@@H](Cc1cc(I)c(O)c(I)c1)C(=O)O ?
EPAC2 ant val: 14%

Results for O=C(c1cccc(F)c1)N1CCC2(CC1)CCN(c1ccc(-c3ccccc3)cc1)CC2 ?
EPAC2 ant val: -9%

How did C1=C(CN2CCOCC2)COc2c1cccc2OC[C@@H]1CNCCO1 do in these assays?
EPAC2 ant val: -28%

How did O=C(C[N+]1(CCc2ccccc2)CCOCC1)c1ccccc1 do in these assays?
EPAC2 ant val: 19%

Results for Cc1ccc([N+](=O)[O-])cc1S(=O)(=O)N(C)C ?
EPAC2 ant val: -13%

How did COc1ccc(Oc2ncc3nc(-c4ccc(F)cc4)c(=O)n(C4CC4)c3n2)cc1 do in these assays?
EPAC2 ant val: -26%

Results for O=C(O)c1ccccc1C(=O)Nc1ccc(S(=O)(=O)Nc2nccs2)cc1 ?
EPAC2 ant val: -24%

How did O=NN(CCCl)C(=O)NCCCl do in these assays?
EPAC2 ant val: -8%&4%&-9%

What do the screens show for `N#Cc1cccc(-c2nc(Nc3ccccc3)c3ccccc3n2)c1`?
EPAC2 ant val: -13%

How did COc1ccccc1CN1CCCC2(CCN(S(=O)(=O)c3ccccc3)CC2)C1 do in these assays?
EPAC2 ant val: -13%

Results for C[C@@H](CN=[N+]=[N-])CN1CC[C@H](C(C)(C)C)CCC1=O ?
EPAC2 ant val: inconclusive

Results for COc1cc(CNC(=O)CCCCCCC(C)C)ccc1O ?
EPAC2 ant val: inconclusive

Results for COc1cc(C)c(CC/C(C)=C/C=C/C(C)=O)c(C)c1C ?
EPAC2 ant val: inconclusive

Results for COc1ccccc1C1CN(CCNC(=O)c2sccc2Cl)Cc2ccccc2O1 (stereo unspecified) ?
EPAC2 ant val: -1%

What do the screens show for `O=C(c1cc(C(F)(F)F)cc(C(F)(F)F)c1)N1CCC2(CC1)CCN(c1ccccn1)CC2`?
EPAC2 ant val: inconclusive

How did CCCC[C@H]1COCCS(=O)(=O)N1Cc1cccc(Cl)c1 do in these assays?
EPAC2 ant val: inconclusive

Results for CCOC(=O)C(C)Oc1cccc2c(=O)n(CC(=O)Nc3ccc4c(c3)OCCO4)ccc12 (stereo unspecified) ?
EPAC2 ant val: -19%

What do the screens show for `COc1cccc(Cn2c(=O)c(-c3ccccc3)nc3cnc(N4CCNCC4)nc32)c1`?
EPAC2 ant val: -11%

How did CN1CCN(c2ncnc3ccc(-c4ccoc4)cc23)CC1 do in these assays?
EPAC2 ant val: -7%

What do the screens show for `CSc1nc(NC2CCCC2)c([N+](=O)[O-])c(NC2CCCC2)n1`?
EPAC2 ant val: -15%

What do the screens show for `COc1ncc2ncc(=O)n(Cc3cccs3)c2n1`?
EPAC2 ant val: -21%

How did Cc1ncc2c(c1CNC(=O)CN1CCCC1)CCN(C(=O)c1ccc(F)cc1F)C2 do in these assays?
EPAC2 ant val: -13%

What do the screens show for `COCC(=O)N1CCC2(CC1)CCN(c1ccc(-c3ccccc3)cc1)CC2`?
EPAC2 ant val: -11%

Results for O=C1CC(c2ccc(O)c(O)c2)Oc2cc(O)cc(O)c21 (stereo unspecified) ?
EPAC2 ant val: -7%

How did Cc1cc(C)cc(NC(=O)C2CC23CCN(Cc2ccc4ncccc4c2)CC3)c1 (stereo unspecified) do in these assays?
EPAC2 ant val: -30%

How did CCC(=O)O[C@H]1CC[C@H]2[C@@H]3CCc4cc(O)ccc4[C@H]3CC[C@]12C do in these assays?
EPAC2 ant val: 50µM*

How did CCNC(=O)c1cc(NC(=O)COC)cc2nc(-c3ccncc3)n(C)c12 do in these assays?
EPAC2 ant val: -27%

Results for COc1ccc(Oc2ncc3nc(-c4cc(F)cc(F)c4)c(=O)n(C)c3n2)cc1 ?
EPAC2 ant val: -2%

Results for COc1ccc(SC[C@H](C)CN2CC[C@H](C)CCC2=O)cc1 ?
EPAC2 ant val: 50µM*

How did CN1C[C@H](C(=O)N[C@]2(C)O[C@@]3(O)[C@@H]4CCCN4C(=O)[C@H](Cc4ccccc4)N3C2=O)C[C@@H]2c3cccc4[nH]cc(c34)C[C@H]21 do in these assays?
EPAC2 ant val: inconclusive

Results for Cc1noc(C)c1C(=O)N1CCC2(CC1)CN(C(=O)Nc1cccc(F)c1)C2 ?
EPAC2 ant val: -17%

Results for c1ccc(CNc2ncnc3ccc(-c4ccoc4)cc23)cc1 ?
EPAC2 ant val: -7%

What do the screens show for `COc1cc2c(cc1O)CCC1C2CC[C@@]2(C)C1CC[C@@H]2O` (stereo partly specified)?
EPAC2 ant val: -26%

How did Cc1cc(C)nc(S[C@H]2C[C@@H](C(=O)N3CCN(c4ccccc4F)CC3)N(Cc3ccccc3C(F)(F)F)C2)n1 do in these assays?
EPAC2 ant val: inconclusive

Results for C=CCSc1nnc(C2CCCN(Cc3ccccc3O)C2)n1C (stereo unspecified) ?
EPAC2 ant val: -4%

What do the screens show for `COc1ccccc1N1CCN(CCCNc2c(C)c(=O)n(C)c(=O)n2C)CC1`?
EPAC2 ant val: -20%&-14%

How did CN(C)c1ncc2ncc(=O)n(C)c2n1 do in these assays?
EPAC2 ant val: inconclusive

Results for CC[C@]1(O)C[C@H]2CN(CCC3=c4ccccc4=N[C]3[C@@](C(=O)OC)(c3cc4c(cc3OC)N(C)[C@H]3[C@@](O)(C(N)=O)[C@H](O)[C@]5(CC)C=CCN6CC[C@]43[C@@H]65)C2)C1 ?
EPAC2 ant val: -14%

How did O=S(=O)(NCCNC/C=C/c1ccc(Br)cc1)c1cccc2cnccc12 do in these assays?
EPAC2 ant val: -11%[151 µM]

What do the screens show for `O=C(NCC1(N2CCOCC2)CCCCC1)c1cnn(-c2nccc(-c3ccco3)n2)c1C1CC1`?
EPAC2 ant val: -12%

How did COc1ccc(CNc2ncnc3ccc(-c4c(C)noc4C)cc23)c(OC)c1 do in these assays?
EPAC2 ant val: -25%

Results for C[C@@]12CCC[C@H]1[C@@H]1CC[C@H]3C[C@@H](O)CC[C@]3(C)[C@H]1CC2 ?
EPAC2 ant val: -9%

How did COc1ccc(-n2c(=O)c(-c3cn(C)c4ccccc34)nc3cnc(N4CCOCC4)nc32)cc1 do in these assays?
EPAC2 ant val: -1%

Results for O=c1[nH]cnc2c1nc(Cl)n2C1OC(CO)C(O)C1O (stereo unspecified) ?
EPAC2 ant val: -6%

What do the screens show for `CCCCCc1ccc(-c2cn(Cc3ccc(C(=O)c4ccccc4)cc3)nn2)cc1`?
EPAC2 ant val: inconclusive

What do the screens show for `CC1=C(/C=C/C(C)=C/C=C/C(C)=C/C=C/C=C(C)/C=C/C=C(C)/C=C/C2=C(C)C(=O)CCC2(C)C)C(C)(C)CCC1=O`?
EPAC2 ant val: -12%

Results for Cc1cccc(CNC(=O)c2cnn(-c3ncc(C)c(-c4ccc(F)cc4)n3)c2C)n1 ?
EPAC2 ant val: -13%

Screening results: PubChem BioAssay, National Center for Advancing Translational Sciences (NCATS)

A portion of the library; the hit share may differ from the screen's.
